Screening data from PubChem.
HSV replic up: increases HSV replication in cells. HSV replication augmentation in cells, fold increase. 220,000 tested, 0.005% active. maximum fold increase;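 active = peak rise of 1.5-fold or more in the series; tested in PC3 cells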;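 also: first round at 10 µM; read as green reporter fluorescence; hits show the peak of a series up to 25 µM; 1 = signal of infected wells without compound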
Insulin prom inh: TRM-6 insulin promoter activity inhibition; TRM-6 cells (human fetal islet line), insulin promoter-eGFP reporter, imaging; reporter expression induced with tamoxifen; inhibition, % at 2 µM; 130,000 tested, 0.9% active; AID 1273;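 active = inhibition above the mean plus 3 SD, with well images judged a real hit on visual review, cut at about 60% in these data, passing the limit was not always enough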
RGS16-Gao HTS: modulates binding between human RGS16 and Galphao; O15492+P09471; bead-based flow cytometry RGS16-Galphao binding, fluorescence; actives lie on both sides; 220,000 tested, 0.38% active; binding response (% of control), % at 10 µM;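 active = below 25% or above 175%, edge rows of some plates excepted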;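 also: Galphao activated by GDP with aluminum fluoride before binding; 100% = wells without compound and 0% = beads without RGS; some results beyond the cut were filed as inactive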
GALR2 agonist: GALR2 (human) receptor agonism; O43603; GALR2-expressing cells, agonist activation read-out; activation, %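 (tested at 5 µM)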; 140,000 tested, 0.48% active;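 active = above mean plus 3 SD of all compounds, about 5% in these data, not always enough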;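 also: 0% = vehicle buffer wells and 100% = reference agonist at full effect; tested in CHO reporter cells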
PKD1 inh: inhibitors of human PKD1 kinase. inhibition, %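 (about 10 µM by stock and volumes)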. PKD1 kinase fluorescence polarization assay. 200,000 tested, 0.056% active. AID 797;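 active = inhibition of 50% or more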;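 also: controls were vehicle for no effect and a reference inhibitor for full effect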
Target sequence (Q15139 whole entry, looked up): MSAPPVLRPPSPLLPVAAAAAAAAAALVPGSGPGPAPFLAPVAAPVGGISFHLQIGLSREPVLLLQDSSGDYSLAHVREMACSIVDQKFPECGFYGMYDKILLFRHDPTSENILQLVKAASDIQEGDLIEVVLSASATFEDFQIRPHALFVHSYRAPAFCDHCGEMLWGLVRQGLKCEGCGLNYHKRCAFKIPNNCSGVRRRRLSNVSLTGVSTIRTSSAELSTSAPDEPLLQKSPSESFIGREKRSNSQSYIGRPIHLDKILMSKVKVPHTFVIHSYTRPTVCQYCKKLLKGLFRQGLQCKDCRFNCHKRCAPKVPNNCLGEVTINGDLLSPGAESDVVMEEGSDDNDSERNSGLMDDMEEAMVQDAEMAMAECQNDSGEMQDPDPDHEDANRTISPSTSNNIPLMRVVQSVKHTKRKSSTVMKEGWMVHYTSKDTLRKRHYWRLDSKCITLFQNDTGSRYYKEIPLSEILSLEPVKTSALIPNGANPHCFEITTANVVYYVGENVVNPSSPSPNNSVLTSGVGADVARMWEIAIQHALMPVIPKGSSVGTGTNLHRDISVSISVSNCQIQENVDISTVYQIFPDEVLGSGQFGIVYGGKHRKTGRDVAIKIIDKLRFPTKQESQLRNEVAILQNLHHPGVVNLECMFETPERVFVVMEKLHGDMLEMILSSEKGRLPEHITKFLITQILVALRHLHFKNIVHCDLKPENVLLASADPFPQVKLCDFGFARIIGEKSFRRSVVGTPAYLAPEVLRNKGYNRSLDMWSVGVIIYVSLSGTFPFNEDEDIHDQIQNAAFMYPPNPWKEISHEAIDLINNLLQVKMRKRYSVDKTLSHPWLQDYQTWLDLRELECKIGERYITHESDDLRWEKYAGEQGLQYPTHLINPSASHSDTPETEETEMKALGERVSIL
Insulin prom inh cell count: second read-out of Insulin prom inh, no call of its own (marks repeat the call); normalized cell count, %; measured here: cell count, toxicity; reference of the scale not given here;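 cells exposed to compound for 48 h; stained nuclei by imaging scaled within each plate; lower means fewer cells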
HSV replic up primary fold: second read-out of HSV replic up, no call of its own (marks repeat the call); fold increase; compound at 10 µM; measured here: primary screen fold increase 10 uM; tested in PC3 cells;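 GFP signal in the first replicate; 1 = infected wells without compound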
* hit, by the source's call; i = inactive; · = not tested or not shown. An unsorted share of the library; about 1.3% have a hit in one of these screens.

Structure,HSV replic up,HSV replic up primary fold,Insulin prom inh,Insulin prom inh cell count,RGS16-Gao HTS,GALR2 agonist,PKD1 inh
CCc1ccccc1Nc1nc(N)nc(CSCC(=O)c2cc(C)n(C)c2C)n1,i,0.91,-7,135,99,-1.5,-2
c1cnc(NCCNc2ncccn2)nc1,i,0.81,·,·,101,-1.2,-6
COc1ccc2c(c1)c(C(O)CN1CCN(Cc3ccc4c(c3)OCO4)CC1)c(C)n2C (centres undefined),i,1.1,-223,1,106,-2.0,6
CCOC(=O)Cc1csc(NC(=O)c2ccc(S(=O)(=O)N3CCOCC3)cc2)n1,i,0.92,·,·,98,·,-3
COC(=O)c1cccc(NC(=O)c2cc3sccc3n2C)c1,i,0.94,·,·,102,-0.6,4
O=C(CSCc1ccc(Br)cc1)Nc1ccc(S(=O)(=O)N2CCCCCC2)cc1,i,0.74,·,·,104,-1.8,0
Cc1nc(C(=O)NNC(=O)c2ccccc2Cl)c(C(F)(F)F)o1,i,1.3,·,·,98,·,·
O=C(Nc1ccc(Cl)cn1)C1CCN(S(=O)(=O)c2cccs2)CC1,i,1.1,·,·,101,·,·
COc1ccc(CC(=O)Nc2cccc(-c3nnc(-c4ccc(C)cc4)o3)c2)cc1OC,i,0.44,·,·,103,-1.6,-3
Cc1cc(NC(=O)c2cc(CC(C)C)on2)n(-c2ccccc2)n1,i,0.84,·,·,100,-1.1,-8
Cc1cc(C)nc(SCc2ccc(C(=O)N/N=C/c3ccccc3C(=O)O)cc2)n1,i,1.1,·,·,99,·,6
CCOC(=O)c1c(C)[nH]c(C(=O)CN2CCOCC2)c1C,i,0.93,·,·,101,-0.8,11
FC(F)(F)C(Oc1nc(NC2CCCCC2)nc(N2CCOCC2)n1)C(F)(F)F,i,0.94,·,·,93,1.5,3
O=C1C2C3C=CC(C3)C2C(=O)N1Cc1ccccc1 (centres undefined),i,0.97,15,67,99,-1.0,-3
CC(C)(C)C(=O)Nc1nnc(SCC(=O)Nc2ccc3c(c2)OCO3)s1,i,0.88,25,80,108,-1.1,-1
CCOC(=O)c1[nH]c2ccc(C)cc2c1N=C(C)N(C)C,i,1,16,89,101,-2.1,-10
N#Cc1c(N)n(CCNC(=O)c2ccccc2)c2nc3ccccc3nc12,i,0.97,-143,102,87,0.5,-8
Cc1nn(CC(=O)Nc2ccc3c(c2)nc(CN2CCCC2)n3C)c(=O)c2ccccc12,i,0.9,5,158,96,-0.3,-12
O=C(CSC1CC(=O)N(CC(c2ccccc2)c2ccccc2)C1=O)Nc1ccc(Cl)cc1 (centres undefined),i,0.96,·,·,101,-3.1,4
CCCc1cc(C(=O)N(C2CCCCC2)C2CCCCC2)no1,i,1.2,·,·,104,-1.8,-5
O=C(NCCc1ccc(Cl)cc1)c1cccnc1,i,1,-8,125,105,-2.9,-2
CC(=O)c1ccc(NC(=O)C(C)N2CCN(C/C=C/c3ccccc3)CC2)cc1 (centres undefined),i,0.94,-9,82,154,·,13
O=C(NCc1ccco1)c1cccs1,i,0.96,·,·,101,0.7,-5
Cn1c(Oc2ccccc2NCc2cc(Br)ccc2O)cc(=O)n(C)c1=O,·,·,-10,133,102,-1.0,-5
O=C(Nc1cccc2c1CCCC2)c1ccco1,i,0.92,-9,130,101,-1.1,-2
Cc1cc(C)c(S(=O)(=O)N2CCN=C2c2ccccc2)cc1C,i,0.79,-17,117,132,0.4,-4
COc1ccc(S(=O)(=O)N2CCOCC2)cc1C(=O)Nc1nc2ccccc2s1,i,0.78,3,195,102,-2.8,-5
Cc1ccc(C(=O)Nc2ccccc2C(=O)NC(CC(=O)O)C(=O)O)cc1 (centres undefined),i,0.86,·,·,103,-4.3,-3
Cc1n[nH]c(C)c1S(=O)(=O)N(CC(=O)Nc1ccc2c(c1)OCCO2)c1ccc(C(C)C)cc1,i,1,·,·,111,-1.7,-1
C=CCSc1nc(N)c(C#N)c(-c2ccc(C)cc2)c1C#N,i,0.93,40,90,105,-0.1,-10
COc1ccc(NC(=O)CSc2nc(N)c(C(=O)Nc3ccc(N(C)C)cc3)s2)cc1,i,1,38,107,103,0.1,-2
COc1cc(OC)cc(C(=O)NCC(=O)OCC(=O)C(C)(C)C)c1,i,1.1,27,83,99,-1.5,-12
Cc1nn(Cc2ccccc2)c(C)c1/C=N/NC(=O)CNc1cccc(C(F)(F)F)c1,i,0.98,·,·,99,-0.3,5
Cc1ccc(CNC(=O)C2CCCN(c3nn4c(=O)cc(C)nc4s3)C2)cc1 (centres undefined),i,0.93,·,·,99,·,2
Cn1nnnc1SCC1=C(C(=O)O)N2C(=O)C(NC(=O)C3CC3c3ccccc3)C2SC1 (centres undefined),i,0.84,12,89,100,·,14
FC(F)(F)c1ccc(C2[C@H]3CN(Cc4ccc(-c5ccccc5)cc4)[C@H](c4ccccc4)C34CC2(c2ccccc2)C4)cc1 (some centres undefined),i,0.94,·,·,100,·,·
O=C(CN(c1ccccc1)S(=O)(=O)c1ccc(F)cc1)N1CCCCCC1,i,1,-60,76,108,-1.6,-10
CN(C)c1ccc(CNCCC2CCOC(C)(C)C2)cc1 (centres undefined),i,1,-21,58,75,-0.5,-4
CC(C)CC(COCc1ccc(F)cc1)N1CCN(C(=O)c2cccc(C(F)(F)F)c2)CCC1=O (centres undefined),i,0.85,-75,101,103,-0.6,-11
COc1ccc(S(=O)(=O)N2CCCCCC2)cc1C(=O)OC(C)C(N)=O (centres undefined),i,1,·,·,106,·,·
C=CCNc1nc(-c2ccc(OC)cc2OC)cs1,i,0.84,50,41,101,-1.1,-14
CC1C/C(=N/NC(=O)c2ccc(CSc3nc4ccccc4[nH]3)cc2)CC(C)(C)C1 (centres undefined),i,0.99,-27,123,103,-1.0,-12
O=S1(=O)C=C(SCCN2CCCC2)c2ccccc21,i,0.99,-3,129,105,-2.2,-4
Cc1cc(C)c2c(n1)sc1c(=O)[nH]c(SCc3ccccc3)nc12,i,0.88,-4,119,97,-3.4,0
COc1ccc(CCNC(=O)Cn2c(=O)oc3cc(Cl)ccc32)cc1OC,i,0.98,·,·,103,·,·
CCCN1CCN(CCCNC(=O)C2CCN(c3nnc(-n4cccc4)s3)CC2)CC1,i,0.95,-33,76,221,-1.2,5
Cc1ccc(-c2nc(CN(CC3CCC3)CC3CCCO3)c(C)o2)s1 (centres undefined),i,0.9,·,·,98,·,2
CCN(CC)S(=O)(=O)c1cc(C(=O)OCC(=O)NC2CCCc3ccccc32)ccc1C (centres undefined),i,0.9,-21,125,101,-0.6,-14
CCc1nc2sc(C)c(C)c2c(=O)n1CCO,i,0.89,-8,170,141,0.2,-2
COc1ccc(CC(C(=O)Nc2cc(C)ccc2C)/C(N)=N/O)cc1 (centres undefined),i,0.98,-12,94,93,-4.2,-6
CSc1nnc(Cc2sc(-c3ccccc3)nc2-c2ccccc2)o1,i,0.8,55,105,107,-0.6,-4
O=[N+]([O-])c1ccc(N2CCCC2)cc1NC1CC1,i,0.87,44,70,80,-0.2,-9
Cc1cccc(NC(=O)c2ccccn2)c1C,i,0.88,·,·,101,-0.7,-15
Cc1cc([N+](=O)[O-])nn1CC(=O)N/N=C/c1ccccc1O,i,1.1,·,·,80,·,·
O=C(O)c1ccc(OCCn2ccnc2)cc1,i,0.83,-7,122,101,-1.0,18
COc1ccc2c(c1)c(=O)oc1cc(OCC(=O)NC3CCCCC3)ccc12,i,0.88,0,76,98,-2.6,0

Next entries
Structure,HSV replic up,HSV replic up primary fold,Insulin prom inh,Insulin prom inh cell count,RGS16-Gao HTS,GALR2 agonist,PKD1 inh
Cc1sc2nc(SCC(=O)N(CCO)CCO)nc(N)c2c1C,i,1.1,·,·,95,·,-5
Cc1ccccc1Sc1c(C#N)c(-c2ccccc2)nn1C,i,0.8,-32,145,100,-1.2,-15
CCOc1ccc2nc(N3C(=O)/C(=C/c4ccc(Cl)cc4)NC3=S)sc2c1,i,1.1,·,·,104,-0.5,0
Cc1sc2nc(SCC(=O)N(C)Cc3ccccc3)n(-c3ccccc3)c(=O)c2c1C,i,0.99,27,51,97,-0.8,-8
COc1ccc(CCN2C(=NC(=O)CCC(=O)O)SC3CS(=O)(=O)CC32)cc1 (centres undefined),i,0.93,34,98,157,-1.0,4
C=CCN1C(=O)N(/C=C/C)c2cccc3cccc1c23,i,1,55,112,106,-0.1,1
CCCCNC(C(=O)Nc1ccc([N+](=O)[O-])cc1Br)c1ccccc1 (centres undefined),i,0.89,·,·,101,0.4,3
c1ccc(CN2CCC3(CC2)Nc2ccccc2S3)cc1,i,0.87,·,·,100,·,·

Sorted by value in PKD1 inh (low to high): 5 from the list above.
SMILES | HSV replic up | HSV replic up primary fold | RGS16-Gao HTS | GALR2 agonist | PKD1 inh
Cc1cc(NC(=O)c2cc(CC(C)C)on2)n(-c2ccccc2)n1 | i | 0.84 | 100 | -1.1 | -8
O=C(NCc1ccco1)c1cccs1 | i | 0.96 | 101 | 0.7 | -5
O=C1C2C3C=CC(C3)C2C(=O)N1Cc1ccccc1 (centres undefined) | i | 0.97 | 99 | -1.0 | -3
O=C(NCCc1ccc(Cl)cc1)c1cccnc1 | i | 1 | 105 | -2.9 | -2
FC(F)(F)C(Oc1nc(NC2CCCCC2)nc(N2CCOCC2)n1)C(F)(F)F | i | 0.94 | 93 | 1.5 | 3

(next part)
Structure,HSV replic up,HSV replic up primary fold,Insulin prom inh,Insulin prom inh cell count,RGS16-Gao HTS,GALR2 agonist,PKD1 inh
Cc1ccc(S(=O)(=O)Nc2ccc3nc(-c4cccn4C)[nH]c3c2)cc1,i,1,24,151,71,-1.5,10
CCOC(=O)c1sc2nc(CN3CCCCC3)nc(Cl)c2c1C,i,0.91,0,80,106,·,-3
Cc1ccc(C(=O)c2ccccc2C(=O)OCC(=O)Nc2cccc([N+](=O)[O-])c2)cc1,i,0.88,·,·,101,0.1,-3
CCn1nnc(-c2ccc(N)cc2)n1,i,0.94,·,·,97,·,-3
CCOC(=O)c1cn(-c2ccc(F)c(F)c2F)c2c(F)c(F)c(F)cc2c1=O,i,1.1,13,99,104,-1.4,1
C=CCNC(=S)N/N=C(\C)c1ccccn1,i,0.58,38,38,115,-3.4,-4
O=C(COC(=O)c1cccc(NS(=O)(=O)c2ccc(F)c(F)c2)c1)NC(=O)NC1CCCC1,i,0.98,·,·,102,1.2,8
CCc1cccc(CC)c1NC(=O)COC(=O)c1cccc(S(=O)(=O)N2CCc3ccccc3C2)c1,i,0.84,·,·,102,-0.4,-1
COc1ccc(/C=N/NC(=O)Cn2cnc3ccccc3c2=O)cc1,i,1,-107,120,112,-2.0,-1
O=C(NCc1ccccn1)Nc1ccc2c(c1)OCO2,i,1.1,-33,101,103,-2.0,3
CC(=O)Nc1ccc2c(c1)c1ccccc1n2C(C)=O,i,0.76,-30,42,107,1.1,59*
O=C1OC(Nc2cc(Br)cc3cccnc23)c2ccccc21 (centres undefined),i,0.92,-30,112,96,-0.3,12
Cc1cc2ccccn2c1C(=O)c1ccncc1,i,1.1,-6,122,104,-1.9,-3
Cc1ccc(Nc2nc(CSc3nnc(-c4ccncc4)n3C)cs2)cc1,i,1.1,38,32,39,-1.4,-4
COc1ccc2[nH]c(C(=O)Nc3cccc(C)n3)cc2c1,i,0.96,·,·,108,·,·
COC(=O)c1ccc2nc(NC(=O)C(C)(C)C)sc2c1,i,0.97,45,78,126,·,-10
O=C(NNC(=O)c1cc2cc(OC(F)(F)F)ccc2[nH]1)c1cccc(C(F)(F)F)c1,i,1,·,·,103,·,·
COc1ccc(NC(=O)c2cc(S(=O)(=O)N3CCS(=O)(=O)CC3)ccc2Cl)cc1,i,0.91,38,87,71,-5.1,-4
OC1CCCN(CC(O)COC(c2ccccc2)c2ccccc2)C1 (centres undefined),i,0.72,·,·,102,·,·
COC(=O)CN(c1nc(C)c(Br)c(OC)n1)S(=O)(=O)c1ccc(C)cc1,i,0.92,-31,125,93,-2.6,-8
CN(C(=O)c1cccc(COc2ccc(Cl)cc2Cl)c1)c1ccccc1,i,0.94,-50,51,74,-1.2,4
Cn1c(=O)c2c(nc(CN3CCN(C(=O)c4ccco4)CC3)n2CCc2ccccc2)n(C)c1=O,i,0.95,·,·,103,-1.9,11
CCC(=O)c1ccc(/C=C/c2nc3ccccc3n2C)o1,i,1,·,·,98,·,4
N#Cc1cccnc1N1CCC(C(N)=O)CC1,i,0.98,·,·,105,·,·
